Screening results deposited in PubChem BioAssay by several laboratories.
Mtb growth – M. tuberculosis H37Rv growth inhibitors, H37Rv strain (AID 1626) | M. tuberculosis H37Rv growth inhibition; higher % means a stronger effect | inhibition, % at 10 µM; hits with a dose series show IC50 in µM | hit rate 0.95% among 220,000;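 active = confirmed in a dose series; inconclusive = inhibition above 80% but not taken into the dose series; inactive = below 80% or under 30% at every dose of the series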;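 also: bacteria incubated seven days before Alamar blue readout; 0% = bacteria only wells and 100% = bacteria with antibiotic wells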
Arbovirus anti – antivirals against arbovirus infection | hit rate 0.37% among 200,000 | AID 1251 | arbovirus infection cell-based antiviral screen | inhibition, % at 10 µM;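 active = inhibition from about 30%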;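 also: bluetongue infection of BSR cells; cell survival read as ATP light after 72 h; 0% = infected wells without compound and 100% = uninfected wells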
RecA intein inh – inhibitors of M. tuberculosis RecA intein splicing; cell-free RecA intein splicing, fluorescence; inhibition, %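 (about 9 µM by stock and volumes)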; P9WHJ3; hit rate 0.75% among 290,000; in the data active = inhibition above about 30%; inconclusive = no clear call, values can overlap the other calls;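 also: 0% = vehicle wells and 100% = reference inhibitor control wells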
Target sequence (P9WHJ3 whole entry, looked up): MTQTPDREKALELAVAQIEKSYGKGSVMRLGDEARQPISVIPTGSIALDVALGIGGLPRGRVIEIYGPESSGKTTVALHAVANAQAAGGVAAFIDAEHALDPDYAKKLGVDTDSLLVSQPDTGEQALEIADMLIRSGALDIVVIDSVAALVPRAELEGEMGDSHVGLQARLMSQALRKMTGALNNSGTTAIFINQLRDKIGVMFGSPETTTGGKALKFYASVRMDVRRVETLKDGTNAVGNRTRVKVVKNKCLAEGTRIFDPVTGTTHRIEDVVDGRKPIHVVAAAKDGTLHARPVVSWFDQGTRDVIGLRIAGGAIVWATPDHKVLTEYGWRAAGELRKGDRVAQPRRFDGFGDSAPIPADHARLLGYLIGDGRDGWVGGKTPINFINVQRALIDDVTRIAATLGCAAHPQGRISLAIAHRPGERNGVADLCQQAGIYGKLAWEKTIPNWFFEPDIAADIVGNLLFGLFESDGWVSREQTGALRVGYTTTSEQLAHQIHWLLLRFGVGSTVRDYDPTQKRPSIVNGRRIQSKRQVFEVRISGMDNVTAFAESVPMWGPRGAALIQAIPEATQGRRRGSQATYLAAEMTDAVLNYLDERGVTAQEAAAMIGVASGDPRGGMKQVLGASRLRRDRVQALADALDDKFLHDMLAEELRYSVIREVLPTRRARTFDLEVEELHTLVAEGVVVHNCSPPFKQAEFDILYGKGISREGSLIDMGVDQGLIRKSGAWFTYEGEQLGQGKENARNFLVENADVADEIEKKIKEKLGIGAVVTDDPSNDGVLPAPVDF
YopH inh – YopH (Yersinia) phosphatase inhibition | fluorescence Ex485/Em525 | inhibition, %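 (about 10 µM by stock and volumes)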 | hit rate 0.16% among 140,000 | AID 898;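 active = inhibition of 50% or more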;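 also: controls were vehicle for no effect and minimum signal wells for full effect; inactives centre near -20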
Mtb bLac sens – beta-lactam sensitization of Mtb H37Rv; AID 434955; hit rate 0.27% among 330,000; M. tuberculosis H37Rv growth with meropenem, percent inhibition; hits of this screen are not shown here; inhibition, % at 25 µM;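 active = about 74% or more and at least 40 points above the plate without the antibiotic, then above 30% in a dose series; inconclusive = first-round hits that could not be retested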;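 also: growth measured after seven days incubation then overnight dye step; 0% = bacteria only wells and 100% = bacteria with antibiotic; twin plates without the antibiotic show which effects depend on it; some results filed as inactive read as strong as hits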
Numbers without * were called inactive; ? = inconclusive; nt = no result given.

Each structure is followed by: Arbovirus anti, Mtb bLac sens, YopH inh, Mtb growth, RecA intein inh
[1] COC(=O)[C@H](Cc1ccccc1)NC(=O)Nc1ccc(C)cc1
  6, 3, 17, -3%, -1.6
[2] Cc1c(O)nc2ccccn2c1=O
  nt, -3, nt, -9%, -0.6
[3] Cc1ccc(S(=O)(=O)N2CCCC2C(=O)OCc2ccco2)cc1 (configuration not stated)
  10, 5, -11, 2%, 4.7
[4] CCCCC(=O)N(Cc1ccc2c(c1)OCO2)Cc1nc2ccccc2c(=O)[nH]1
  -4, -7, nt, 2%, -0.9
[5] COCCCNC(=S)N1CCN(c2ccc([N+](=O)[O-])cc2)CC1
  -5, 2, -7, 2%, -6.4
[6] COc1ccc(N2CC(C(=O)Nc3nc4ccc(OC)cc4s3)CC2=O)cc1 (configuration not stated)
  nt, 81, nt, nt, 5.2
[7] CCNC(=S)NNC(=O)Cc1ccccc1
  10, -9, -26, 3%, -3.2
[8] COc1ccc(Cl)cc1NC(=O)c1cc(S(=O)(=O)N2CCCC2)cn1C
  nt, 7, nt, nt, 0.9
[9] COc1ccc(Cl)cc1NC(=S)NNC(=O)CC(C)C
  10, 2, nt, -2%, -3.8
[10] COCC(C)NC(=O)c1cccc(Cl)c1 (configuration not stated)
  2, -13, 12, -7%, 1.0
[11] O=C(O)c1cc(Nc2nc(N3CCOCC3)nc(N3CCOCC3)n2)ccc1Cl
  0, 16, -19, -3%, -3.4
[12] CCOC(=O)C1=C(c2ccccc2)OC(N)=C(C#N)C1c1cccs1 (configuration not stated)
  5, -3, -1, 0%, -0.2
[13] COc1cc(S(=O)(=O)Nc2ccccc2)ccc1N=Cc1c(C)[nH]n(-c2ccc(C)cc2)c1=O
  -14, 1, -28, -14%, -5.5
[14] CC1=C(C(=O)OC(C)C)C(c2cccs2)NC(=S)N1 (configuration not stated)
  5, -1, -21, -4%, 0.6
[15] CNC(=S)N/N=C/c1c(C)c(C(=O)c2ccc(F)cc2)n2ccccc12
  nt, 6, nt, nt, -4.9
[16] CSc1nsc(/C=C/Nc2ccc(C)cc2)c1C#N
  2, 53, -10, -4%, 12
[17] Cc1ccc(NC(=O)CN(C)C(=O)c2ccc(Cl)nc2)cc1
  nt, -10, nt, nt, -2.6
[18] O=C(O)c1ccccc1/C=N/NC(=O)C1CCCC1
  nt, 4, nt, nt, 0.8
[19] COCCCNc1nc2c(-c3ccc(C)cc3)nnn2c2ccccc12
  nt, 4, nt, nt, -65
[20] COc1ccc(Cn2c(=S)[nH]c3cc(C(=O)NCc4cccnc4)ccc3c2=O)cc1
  12, 18, nt, -1%, -6.3
[21] COc1ccc2nc(NC(=O)CSCc3c(C)noc3C)sc2c1
  nt, -13, nt, nt, -2.8
[22] COc1cc(S(=O)(=O)Nc2ccccc2C)ccc1NC(=O)c1ccncc1
  -3, -2, nt, -5%, 4.1
[23] COCCNC(=S)N1CCC(NC(=O)c2ccco2)CC1
  -3, 4, nt, -6%, -2.6
[24] COC(=O)CSc1nc(C)c(Oc2ccccc2)c(=O)[nH]1
  5, 5, -22, 11%, -0.8
[25] COC(=O)c1ccc2c(c1O)C(=O)c1ccccc1C2=O
  -7, 100, -4, 2%, 44*
[26] CCOc1cccc(-c2nnc(SCC(=O)NC3CC3)n2C)c1
  nt, ?, nt, nt, -2.8
[27] CC(C)Cn1c(N)c(C(=O)COC(=O)c2cc(C3CC3)nc3ccccc23)c(=O)n(C)c1=O
  9, 93, -35, 12%, nt
[28] Cc1ccc(SCCNS(=O)(=O)c2ccc3c(c2)OCCO3)cc1
  4, 2, 0, -7%, 5.2
[29] COc1cc2c(cc1NC(=O)COC(=O)/C=C/c1ccc([N+](=O)[O-])cc1)oc1ccccc12
  nt, -3, nt, -2%, 0.2
[30] O=C(CSc1ccc2c(c1)OCCO2)Nc1ccc(Cl)cn1
  -7, 99, -37, 7%, -0.5
[31] CS(=O)(=O)Nc1nnc(C2CCCC2)s1
  -1, 0, nt, -3%, 1.3
[32] O=C(CSc1nc2ccccc2c(=O)[nH]1)N1CCN(c2ccccc2F)CC1
  nt, -6, nt, nt, 2.7
[33] Cc1ccc(S(=O)(=O)NCCOc2nc(N(C)C)nc(N3CCOCC3)n2)cc1
  3, -3, -27, -3%, 1.5
[34] CN(Cc1ccccc1)C(=O)COC(=O)C1=NNC(=O)CC1
  13, 0, -14, 11%, -0.9
[35] Cc1ccc(C)c(NC(=O)CSc2nnc(CNC(=O)c3ccco3)o2)c1
  nt, 1, nt, nt, -10
[36] COc1ccc(N2C(=O)NC3CC2(C)Oc2ccccc23)cc1OC (configuration not stated)
  -1, 0, -36, -3%, -0.7
[37] N#Cc1nc(-c2ccco2)oc1NCCc1ccccc1
  -3, 43, -4, 59%, 4.6
[38] CCOC(=O)c1cc2c(=O)n3cccc(C)c3nc2n(C)c1=N
  -13, nt, -38, nt, nt
[39] c1ccc(-n2nnnc2-c2cnc(-c3cccnc3)nc2-c2cccs2)cc1
  -11, 1, -29, -11%, 9.2
[40] C/C(=N\OC(=O)c1ccc(Br)cc1)c1ccccn1
  -5, 4, -23, -1%, 2.5
[41] CCCc1nnc(NC(=O)C(=O)NCCN(C)C)s1
  nt, nt, nt, -8%, 4.8
[42] COc1ccc(CCNC(=O)c2nnn(CC(=O)Nc3ccc(C)cc3C)c2N)cc1OC
  nt, 8, nt, nt, -2.9
[43] C=COCCn1c(=N)n(CCC)c2ccccc21
  14, 0, -12, -1%, -2.1
[44] O=c1c2ccccc2nc(/C=C/c2ccc3c(c2)OCO3)n1-c1ccccc1
  2, 7, -25, 7%, -1.7
[45] Cc1cccc(N=C2NC(=O)S/C2=C\c2ccco2)c1
  2, -5, 8, -3%, -0.9
[46] CCOc1cc(CNc2ccc3[nH]c(=O)[nH]c3c2)ccc1OCC(=O)NC(C)(C)C
  -11, 45, 33, 0%, -12
[47] CC(C)NC(=O)c1ccc2c3n(nc2c1)-c1ccccc1CO3
  nt, -6, nt, -14%, -0.8
[48] COc1ccc(NC(=O)C(=O)NCCN2CCN(C(=O)c3ccco3)CC2)cc1
  -2, 0, nt, 4%, 1.8
[49] CN1/C(=C\C(=O)COC(=O)c2nccnc2N)C(C)(C)c2ccccc21
  nt, -6, nt, nt, -2.5
[50] O=C(CSc1ccc(C(F)(F)F)cc1[N+](=O)[O-])N1CCOCC1
  nt, 2, nt, nt, 0.3
[51] CN(Cc1nccs1)C(=O)CC1C(=O)NCCN1Cc1ccc(-c2ccccc2)cc1 (configuration not stated)
  nt, -7, nt, -4%, 3.7
[52] Cc1nnc2ccc(-c3ccc(NS(=O)(=O)c4ccc(F)cc4F)cc3)nn12
  nt, 1, nt, nt, -3.6
[53] C=CCNC(=O)NC(=O)COC(=O)c1nc2nccc(C)n2n1
  8, 1, nt, 1%, 1.5
[54] CCCCc1ccc(NS(=O)(=O)c2cccs2)cc1
  -2, -5, -6, 8%, 4.5
[55] O=C(Nc1ccc2c3c(cccc13)CC2)c1cccc([N+](=O)[O-])c1
  -5, 61, -17, 2%, -1.6
[56] CCCn1cc(CN2CCC(C(=O)Nc3cccc(-c4cscn4)c3)CC2)c(C)n1
  nt, -3, nt, nt, 3.1
[57] COc1ccc(CNC(=O)C/C(C)=N/NC(=O)C(c2ccccc2)c2ccccc2)cc1
  -6, -6, -20, -8%, 0.4
[58] Cn1c(SCC(=O)N/N=C/c2ccc([N+](=O)[O-])s2)nnc1-c1ccc(Cl)cc1
  -41, 100, -5, ?, 2.0
[59] COc1ccc(C(C)=O)c2c(O)cccc12
  8, -1, -44, -4%, -5.4
[60] Cc1nc(C(C)NC(=O)c2cc(COc3ccc(C)c(C)c3)on2)c(C)s1 (configuration not stated)
  nt, 5, nt, nt, -2.8

(listing goes on)
Each structure is followed by: Arbovirus anti, Mtb bLac sens, YopH inh, Mtb growth, RecA intein inh
[61] CCN1C(=O)c2cccc3c(S(=O)(=O)NC(Cc4ccccc4)C(=O)O)ccc1c23 (configuration not stated)
  nt, 4, nt, nt, -74
[62] CCC(C)(c1ccc(C=O)s1)c1ccc(C=O)s1
  -4, 3, -6, 14%, 1.6
[63] Cc1cccc(C(=O)NCC(c2ccco2)N2CCc3ccccc32)c1 (configuration not stated)
  nt, -9, nt, nt, 8.2
[64] COc1ccc(C(=O)CSc2nnc(CN3CCCC3)n2-c2ccc(F)cc2)c(OC)c1
  5, 6, -1, 4%, nt
[65] O=C(OCC(=O)N1CCCC1=O)c1ccc(Cl)cc1[N+](=O)[O-]
  nt, -1, nt, nt, -1.2
[66] CCC(C(=O)NCc1ccco1)N(C(=O)CNS(=O)(=O)c1ccc(F)cc1)c1ccccc1F (configuration not stated)
  nt, -10, nt, nt, -0.1
[67] Cc1ccc(OCc2cc(C(=O)N3CCN(C)C[C@@H]3c3ccccc3)no2)cc1C
  nt, -3, nt, nt, -1.7
[68] CCOC(=O)c1cnc(SC)nc1Oc1cccc(NC(=O)c2cccc(Cl)c2Cl)c1
  1, 96, -54, 73%, 4.5
[69] CCn1cc(C(=O)OC)c(=O)c2cc(S(=O)(=O)N(C)C3CCCCC3)ccc21
  5, 0, nt, 3%, -0.8
[70] CN(C)S(=O)(=O)c1cc(NC(=O)[C@H](Cc2ccccc2)N2C(=O)c3ccccc3C2=O)ccc1Cl
  7, -2, -28, -9%, 3.8
[71] O=C1CC(=O)Nc2cc(S(=O)(=O)Nc3cccc(C(F)(F)F)c3)ccc2N1
  nt, -4, nt, nt, -1.1
[72] O=C(C1=NN(c2ccccc2)C2C(=O)N(c3ccc(Cl)cc3)C(=O)C12)c1ccccc1 (configuration not stated)
  1, 4, -32, 1%, nt
[73] Cc1cccc(NC(=S)N2CCC(C(N)=O)(N3CCCCC3)CC2)c1C
  20, 5, nt, -14%, -1.5
[74] COc1cc(C(N)=O)cc(Cl)c1OCc1ccccc1
  -3, 3, -25, 3%, -0.4
[75] COC(C[C@H]1O[C@H]1[C@H](O)[C@@H](C)OCc1ccccc1)OC
  nt, nt, nt, -4%, -0.7
[76] O=C(Nc1ccccc1-c1ccccc1)NC1CCN(C(=O)N2CCOCC2)CC1
  -1, 3, -5, -2%, -0.4
[77] CNc1nc(-c2c(C)n(C)c3ccc(OC)cc23)cs1
  nt, 4, nt, nt, 3.0
[78] COC(=O)c1scc(S(=O)(=O)C(C)(C)C)c1N
  nt, -4, nt, -9%, -6.9
[79] O=C1CCCC2C3CCCN4CCCC(CN12)C34 (configuration not stated)
  -3, -4, -1, -3%, 0.2
[80] Cc1ccc(C(C(=O)NC2CCCCC2)N(CC2CCCO2)C(=O)CCCC(=O)Nc2ccccn2)cc1 (configuration not stated)
  nt, -2, nt, nt, 2.5
[81] Oc1ccc(-c2[nH]ncc2-c2nc3ccccc3s2)c(O)c1
  -1, 1, nt, 2%, -1.1
[82] Cc1ccc(NP(=O)(Nc2ccc(C)cc2)Oc2ccccc2)cc1
  -22, 6, nt, 6%, 7.3
[83] Cc1ccc(NC(=O)C2c3ccccc3Oc3ccccc32)nc1
  -4, 3, nt, -3%, -0.6
[84] Cc1sc2ncnc(NCc3ccccc3)c2c1C
  8, -3, 7, 5%, 2.0
[85] CCOC(=O)c1ccccc1NS(=O)(=O)c1ccc(C)cc1
  -21, -5, -7, -10%, -2.4
[86] Cc1cc(N(CC(=O)O)S(C)(=O)=O)ccc1Br
  3, -6, -12, -5%, nt
[87] CC1=NN(C(=O)COc2ccc(C)c(C)c2)C(O)(c2ccccc2)C1 (configuration not stated)
  -31, 2, -11, 8%, 3.0

Only part of the results is shown; rates above refer to the full screens.
